# Compound activity from PubChem BioAssay.
# Mtb bLac sens – beta-lactam sensitization of Mtb H37Rv; 330,000 tested, 0.27% active; AID 434955; M. tuberculosis H37Rv growth with meropenem, percent inhibition; hits of this screen are not shown here; inhibition, % at 25 µM;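 active = about 74% or more and at least 40 points above the plate without the antibiotic, then above 30% in a dose series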;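 note: growth measured after seven days incubation then overnight dye step; 0% = bacteria only wells and 100% = bacteria with antibiotic; twin plates without the antibiotic show which effects depend on it; some results filed as inactive read as strong as hits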
# Mtb H37Rv – M. tuberculosis H37Rv growth inhibitors, H37Rv strain (AID 1626) | M. tuberculosis H37Rv growth inhibition; higher % means a stronger effect | inhibition, % at 10 µM, or IC50 in µM where a hit was titrated | 220,000 tested, 0.95% active;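 active = confirmed in a dose series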;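 note: bacteria incubated seven days before Alamar blue readout; 0% = bacteria only wells and 100% = bacteria with antibiotic wells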
# YopH PTP inh – inhibitors of Yersinia enterocolitica YopH tyrosine phosphatase | 140,000 tested, 0.16% active | inhibition, %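 (about 10 µM by stock and volumes)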 | fluorescence Ex485/Em525;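 active = inhibition of 50% or more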;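 note: controls were vehicle for no effect and minimum signal wells for full effect; inactives centre near -20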
# RecA intein inh – inhibitors of M. tuberculosis RecA intein splicing; 290,000 tested, 0.75% active; cell-free RecA intein splicing, fluorescence; inhibition, %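 (about 9 µM by stock and volumes)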; AID 2221; P9WHJ3; in the data active = inhibition above about 30%;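 note: 0% = vehicle wells and 100% = reference inhibitor control wells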
# Target sequence (P9WHJ3 whole entry, looked up): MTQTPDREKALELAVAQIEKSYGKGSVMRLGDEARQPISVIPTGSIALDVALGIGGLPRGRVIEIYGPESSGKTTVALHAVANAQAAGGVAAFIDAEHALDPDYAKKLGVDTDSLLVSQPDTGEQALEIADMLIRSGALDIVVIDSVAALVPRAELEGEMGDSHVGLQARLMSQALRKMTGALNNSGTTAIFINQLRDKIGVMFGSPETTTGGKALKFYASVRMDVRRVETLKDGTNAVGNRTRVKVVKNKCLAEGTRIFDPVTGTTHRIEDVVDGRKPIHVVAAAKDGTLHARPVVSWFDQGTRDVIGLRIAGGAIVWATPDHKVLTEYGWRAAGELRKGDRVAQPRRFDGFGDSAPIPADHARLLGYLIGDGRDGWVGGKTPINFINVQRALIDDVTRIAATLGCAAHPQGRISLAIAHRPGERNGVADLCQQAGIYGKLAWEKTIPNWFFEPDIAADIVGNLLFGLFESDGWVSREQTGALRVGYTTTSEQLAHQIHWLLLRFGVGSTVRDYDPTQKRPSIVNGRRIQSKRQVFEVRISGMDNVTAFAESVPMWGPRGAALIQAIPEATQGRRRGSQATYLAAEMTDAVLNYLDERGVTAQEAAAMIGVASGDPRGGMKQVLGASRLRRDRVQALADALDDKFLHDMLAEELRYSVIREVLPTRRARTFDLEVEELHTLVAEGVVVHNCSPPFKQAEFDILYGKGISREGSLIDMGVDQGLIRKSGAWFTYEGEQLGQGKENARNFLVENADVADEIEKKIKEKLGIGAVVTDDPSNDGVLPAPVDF
# Arbovirus inh – arbovirus infection inhibition; inhibition, % at 10 µM; AID 1251; 200,000 tested, 0.37% active; arbovirus infection cell-based antiviral screen;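 active = inhibition from about 30%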;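 note: bluetongue infection of BSR cells; cell survival read as ATP light after 72 h; 0% = infected wells without compound and 100% = uninfected wells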
# Arbovirus inh repeat – further read-out of Arbovirus inh, marked with its call; inhibition, %; measured here: 10K subset replicate screen; many hits read low in the repeat;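 first of two repeat runs on a subset; 0% = infected and 100% = uninfected wells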
# * hit, by the source's call; x = no result given; & = joins results of further samples. The list is partial (hit frequency here may not be typical).
SMILES,Mtb bLac sens,Mtb H37Rv,YopH PTP inh,RecA intein inh,Arbovirus inh,others
COc1cc2[nH]c(=O)c(C(=O)NCCCN3CCOCC3)c(O)c2cc1OC,0,4%,x,-5.5,6,
CC1=C(CC(=O)O)c2cc(F)ccc2/C1=C/c1ccc(S(C)=O)cc1 (configuration not stated),-7,x,x,1.7,x,
O=C(COc1ccccc1)Nc1ccc(Cl)cc1C(=O)c1ccccc1,0,1%,-39,0.1,-9,
COc1ccc(-c2nc(-c3cccs3)no2)cc1,-3,4%,x,6.5,x,
CC(=O)Nc1ccc(S(=O)(=O)NC2(C(F)(F)F)NC(=O)N(c3ccccc3F)C2=O)cc1 (configuration not stated),-4,3%,x,-2.1,0,
CCCCn1c(O)c(/C=C/C=C/C=Nc2ccccc2)sc1=S,22,0%,x,9.0,-1,
CCCCCn1c(=O)[nH]c2cc(C(=O)NCCN(CC)CC)ccc2c1=O,-5,2%,-23,-1.9,-5,
Cc1cccc(NC(=O)CSc2nc3ccccc3c(=O)n2C)c1,-3,x,x,0.6,x,
CCOc1ccc(S(=O)(=O)NCCOC)cc1C,14,5%,-37,0.1,3,
CC(=O)Nc1ccc2c(c1)ncn2-c1ccccc1,14,-10%,x,x,x,
CCOC(=O)c1cccc(NC(=O)/C=C/c2cccc([N+](=O)[O-])c2)c1,-1,1%,-31,1.4,-4,
CNc1nc(NCCOC23CC4CC(CC(C4)C2)C3)nc(OCC(F)(F)F)n1,-8,5%,-47,-5.4,-6,
Cc1ccc(NC(=O)CC(=O)c2ccc([N+](=O)[O-])cc2)cc1S(=O)(=O)Nc1cccc(Cl)c1,94,3%,x,19,-13,
Cc1sc(-c2ccncc2)nc1OC(=O)c1ccc(F)cc1F,0,-2%,x,0.3,8,
S=c1[nH]nc(COc2ccccc2)n1/N=C/C=C/c1ccccc1,5,12%,-27,0.7,8,
CCOc1ccccc1NCc1cc(=O)oc2cc(C)ccc12,3,x,x,3.0,x,
COc1nc(N/N=C/c2ccc(C)cc2)nc(N2CCCCC2)n1,-2,2%,-14,-5.8,-7,
Cc1ccc(/C=C/C(=O)Nc2cccnc2)o1,-11,5%,-18,1.5,-4,
NC(=O)CC[C@@H]1NC(=O)[C@@H]2CCCN2C(=O)c2cc([N+](=O)[O-])cc(I)c2NCCC[C@@H](C(N)=O)NC1=O,-8,-17%,-31,x,-6,
O=C(Cn1cc2c(n1)CCCCC2)NCc1ccccn1,5,-6%,-4,-2.3,-3,Arbovirus inh repeat=0
CC(OC(=O)COc1cccc2c1OC(C)(C)C2)C(=O)Nc1ccc(S(N)(=O)=O)cc1 (configuration not stated),3,x,x,-1.2,x,
CCOc1ccc(-c2nnn(CC(=O)NCc3ccc(C)cc3)n2)cc1,-4,-6%,x,-0.4,5,
Cc1ccc(C)c(NC(=S)N(C)CCO)c1,-1,-9%,x,-0.3,6,
COCCNc1cc(N)c([N+](=O)[O-])cc1[N+](=O)[O-],-7,-9%,-21,0.0,-1,
CCn1c2ccccc2c2cc(NC(=O)c3cccc([N+](=O)[O-])c3C)ccc21,0,5%,-42,-0.2,-19,
C1CCC(Nc2nc3nonc3nc2N2CCSCC2)C1,-6,0%,x,-1.1,-4,
COc1ccccc1N1CCN(C(=O)CN(C)S(=O)(=O)c2ccc3c(c2)c(=O)n(C)c(=O)n3C)CC1,-4,-7%,x,-1.4,-1,
CCC(CC)C(=O)Nc1ccccc1-n1cccc1,19,10%,-17,-1.7,9,
COc1ccc(NS(=O)(=O)c2cccc(C(=O)NCC3(N4CCOCC4)CCCCC3)c2)cc1,0,x,x,-1.8,x,
O=C(O)CC(=O)NC12CC3CC(CC(C3)C1)C2,-1&3,-15%&-13%,-8&-3,1.0&2.1,-7&3,
Cc1c(Cl)cccc1NC(=O)C1CCN(S(C)(=O)=O)CC1,-6,-5%,x,0.6,-1,
COc1ccc(OCc2ccc(C(=O)O)cc2)cc1,1,-11%,-12,0.4,-4,
COC(=O)CC1C(=O)NCCN1C(=S)Nc1ccccc1 (configuration not stated),2,6%,-31,-0.6,5,
O=C(COC(=O)C1CCN(S(=O)(=O)c2cccs2)CC1)NCc1ccc(F)cc1,-8,-1%,x,-0.8,x,
O=C1CCN(S(=O)(=O)c2ccccc2)C2CCCCC12 (configuration not stated),-5,-3%,14,1.7,1,
Cc1ccc(C(=O)c2c(C)oc3c2C(=O)C(=O)c2ccccc2-3)cc1,36,10%,69*,-1.0,-41,
CC1=CC=CC2=NC(=O)CC(C)(C(=O)N(CC(=O)NC3CCCC3)Cc3ccc(Cl)cc3)N12 (configuration not stated),-4,x,x,-1.8,x,
Oc1ccccc1CNc1nccs1,-7,x,x,-1.7,x,
COc1ccc(-c2ccccc2)cc1NC(=O)c1ccncc1,-8,x,x,3.6,x,
COc1ccccc1OCCCCN1CCC(C)CC1,1,x,x,-2.4,x,
O=C(CN1CCCC1)Nc1ccccc1Sc1ccccc1,-4,4%,x,9.7,2,
Cc1cc(NC(=O)COc2coc(CN3CCN(c4ccccc4)CC3)cc2=O)no1,-1,x,x,-3.7,x,
CCOC(=O)Cn1c(=N)n(Cc2ccccc2)c2ccccc21,-3,-9%,-23,1.5,4,
COc1ccc(C(=O)c2ccc(N3CCOCC3)c([N+](=O)[O-])c2)cc1,-5,-3%,x,-2.9,1,
COc1ccc(OC)c(NC(=O)NC2CCCCCCC2)c1,9,x,x,0.7,x,
COc1ccccc1OC(C)C(=O)Nc1ccc2c(c1)n(C)c(=O)n2C (configuration not stated),-4,x,x,0.3,x,
O=C(Nc1ccc(N2CCOCC2)cc1N1CCOCC1)c1ccc([N+](=O)[O-])cc1,-14,x,-39,-3.1,0,
O=C1CCCN1CCCNc1ncnc2c1cnn2-c1ccc(Cl)cc1,-4,-2%,0,2.0,8,Arbovirus inh repeat=7
CC(=O)c1sccc1NC(=O)c1ccccc1C(=O)O,12,-2%,x,0.3,x,
CCOC(=O)N1CCC(NC(=O)CSCc2nc(-c3ccccc3Cl)oc2C)CC1,-4,x,x,2.5,x,

# (listing goes on)
SMILES,Mtb bLac sens,Mtb H37Rv,YopH PTP inh,RecA intein inh,Arbovirus inh,others
COc1ccc2oc(C(=O)OC(C)C(=O)N(C)c3ccccc3)c(C)c2c1 (configuration not stated),0,x,x,-2.4,x,
COc1ccc(-c2noc(CCCC(=O)NCc3ccco3)n2)cc1OC,-4,-7%,-36,0.9,5,
Oc1c(/C=N/c2ccccn2)sc2ccccc12,0,-2%,x,2.4,x,
CCOc1ccc(C(=O)NCC(=O)NNC(=O)C2COc3ccccc3O2)cc1OCC (configuration not stated),-9,x,x,-5.2,x,
COC(=O)C(CCSC)NC(=O)c1cn(-c2ccc(OC)cc2)c(=O)c2ccccc12 (configuration not stated),97,x,x,-0.7,x,
C=C(C)CNC(=S)N/N=C\c1ccc2c(c1)OCO2,4,x,x,0.8,x,
O=C(C1CCN(S(=O)(=O)c2ccc(Cl)cc2)CC1)N1CCC1,1,x,x,-0.2,x,
O=C(CCN1C(=O)c2ccccc2S1(=O)=O)N1CCN(c2ccc(F)cc2)CC1,-6,x,x,5.2,x,
CCN(C(=O)COC(=O)c1ccccc1NCCO)C1CCS(=O)(=O)C1 (configuration not stated),0,x,x,-10,x,
CCOc1ccc(C2c3[nH]c4ccccc4c3C[C@H]3C(=O)N(C4CC4)CC(=O)N23)cc1OC (some centres not stated),4,x,x,-2.5,x,
Cc1ccc(CNC(=O)C(C)OC(=O)c2ccco2)cc1 (configuration not stated),-2,-6%,-37,4.2,0,
Cc1ccc(S(=O)(=O)N2CCCCC2)cc1NS(=O)(=O)c1cccc(C(=O)O)c1,1,4%,-11,0.2,-3,
COc1ccc(C2=NO[C@@H]3[C@@H]4C[C@@H]([C@H]5C(=O)N(C)C(=O)[C@@H]45)[C@H]23)cc1,-2,8%,-12,-2.7,2,
COc1ccc(N(CC(=O)Nc2c(C)n(C)n(-c3ccccc3)c2=O)S(=O)(=O)c2ccc(C)cc2)cc1OC,-7,x,x,18,x,
O=C(Nc1nnc(CCN2CCCCC2)s1)c1cccc(Cl)c1,-4,-6%,x,x,x,
Cc1c(CCC(=O)N[C@@H](C)C(=O)O)c(=O)oc2cc3oc4c(c3cc12)CCCC4,7,x,x,-2.4,x,
CCN(CC)c1ccc(/C=N/N=C(c2ccccc2)c2ccccc2)c(O)c1,12,9%,-32,-3.4,0,
COc1ccccc1CNC(=O)c1ccc(N2CCOCC2)c([N+](=O)[O-])c1,2,7%,x,5.5,3,
CCCCn1c(-c2ccncc2)nc2c1c(=O)[nH]c(=O)n2CC(C)C,-10,-13%,-62,-0.6,6,
COc1ccc(NC(=O)CCC2CCCCC2)cc1S(=O)(=O)N1CCCCC1,-3,10%,-19,5.4,3,
CCCC(c1nnnn1Cc1ccco1)N1CCN(c2ccccc2)CC1 (configuration not stated),5,2%,x,1.1,-11,
CCOc1ccc(NC2=NCC(=O)N2CCc2ccccc2)cc1,-2,6%,-37,1.5,5,
Cc1nn(-c2ccccc2)cc1C(c1c(N)[nH]c(=S)[nH]c1=O)c1c(N)[nH]c(=S)[nH]c1=O,-7,-5%,x,0.9,7,
Nc1cc2c(cc1[N+](=O)[O-])OCO2,-4,1%,x,11,-1,
Cc1cc(OCC(=O)Nc2cc(-c3nn4c(C)nnc4s3)ccc2C)ccc1Cl,6,-5%,-3,x,-6,Arbovirus inh repeat=7
O=C(Cc1cccs1)N1CCN=C1SCc1ccc(Br)cc1,69,>100µM*,x,13,19,
CCOC(=O)/C=C1\SCC(=O)N1CC(=O)c1ccc[nH]1,-1,-3%,-8,2.0,-3,
Cc1c(C(=O)OCC(=O)N(CCC#N)c2ccccc2)oc2c1ccc1ccccc12,0,-4%,-41,0.7,12,
CCC(C(=O)NCCc1ccccc1OC)n1nc(C)c2c(C)n(-c3ccccc3)nc2c1=O (configuration not stated),-5,x,x,0.5,x,
COc1cc(-c2nnc(COc3ccc(Cl)cc3C)o2)cc(OC)c1OC,2,-9%,-13,0.5,-13,
COc1ccccc1C(=O)NCC(=O)OCC(=O)Nc1cccc(S(=O)(=O)N(C)C)c1,-1,0%,x,3.2,4,
CCN1CCN(CCC(=O)Nc2cc(C)ccc2C)CC1,4,x,x,2.7,x,
CCCCc1nc2n[nH]c(N)c2c2c1CCCC2,1,-2%,-11,9.3,6,
CN(Cc1nc(-c2cnccn2)no1)CC1(c2ccccc2)CC1(C)C (configuration not stated),-1,6%,x,-5.9,-27,
COCCN(C(=O)CNC(=O)c1ccco1)C(C(=O)NC1CCCCC1)c1cccs1 (configuration not stated),-3,3%,-22,7.0,-5,
CC(OC(=O)CCC(=O)N1CCN(S(=O)(=O)c2ccc3ccccc3c2)CC1)C(=O)NC(N)=O (configuration not stated),9,x,x,0.2,x,
CCOC(=O)CSc1nnc(-c2cccnc2)o1,2,-9%,-31,4.5,5,
Cc1ccc(NC(=O)c2cccc(C(=O)OC(C)C)n2)c(Br)c1,58,2%,x,x,-9,
